Bioassay records deposited in PubChem BioAssay by several laboratories.
RGS16-Gao = modulators of RGS16 binding to Galphao, primary screen, biochemical, human proteins, multiplexed bead flow cytometry | bead-based flow cytometry RGS16-Galphao binding, fluorescence; actives lie on both sides | binding response (% of control), % at 10 µM | AID 1441, 2008 | hit rate 0.38% among 220,000 | Regulator of G-protein signaling 16 (Homo sapiens) + Guanine nucleotide-binding protein …;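 active = below 25% or above 175%, edge rows of some plates excepted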;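 note: Galphao activated by GDP with aluminum fluoride before binding; 100% = wells without compound and 0% = beads without RGS; some results beyond the cut were filed as inactive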
Target sequence (O15492 whole entry, looked up): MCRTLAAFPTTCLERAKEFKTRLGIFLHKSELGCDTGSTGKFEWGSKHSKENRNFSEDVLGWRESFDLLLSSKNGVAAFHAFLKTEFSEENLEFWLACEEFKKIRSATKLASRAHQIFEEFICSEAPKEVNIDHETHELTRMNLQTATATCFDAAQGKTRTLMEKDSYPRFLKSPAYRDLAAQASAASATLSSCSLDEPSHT
Target sequence (P09471 whole entry, looked up): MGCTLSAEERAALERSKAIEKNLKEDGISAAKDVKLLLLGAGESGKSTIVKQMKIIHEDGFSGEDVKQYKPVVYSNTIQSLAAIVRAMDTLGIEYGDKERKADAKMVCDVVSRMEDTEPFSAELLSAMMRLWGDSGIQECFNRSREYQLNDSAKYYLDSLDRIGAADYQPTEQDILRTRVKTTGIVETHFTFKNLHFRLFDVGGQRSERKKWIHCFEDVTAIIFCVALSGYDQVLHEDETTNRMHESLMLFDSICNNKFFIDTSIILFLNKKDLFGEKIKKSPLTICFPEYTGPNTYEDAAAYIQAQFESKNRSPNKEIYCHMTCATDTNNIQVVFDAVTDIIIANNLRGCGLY
PKD1 kinase inh = inhibitors of human PKD1 kinase, biochemical, fluorescence polarization; Serine/threonine-protein kinase D1 (Homo sapiens), Q15139; PKD1 kinase fluorescence polarization assay; inhibition, %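 (about 10 µM by stock and volumes)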; hit rate 0.056% among 200,000; AID 797, 2007;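 active = inhibition of 50% or more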;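 note: controls were vehicle for no effect and a reference inhibitor for full effect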
HSV replic up = enhancers of HSV replication in host cells, fold increase, host cell viability; HSV replication augmentation in cells; maximum fold increase; hit rate 0.005% among 220,000;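 active = peak rise of 1.5-fold or more in the series; tested in PC3 cells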;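 note: first round at 10 µM; read as green reporter fluorescence; hits show the peak of a series up to 25 µM; 1 = signal of infected wells without compound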
INS promoter inh = inhibitors of insulin promoter-driven GFP, primary screen, imaging, TRM-6 cells (human fetal islet line), eGFP reporter, cell count. inhibition, % at 2 µM. reporter expression induced with tamoxifen. hit rate 0.9% among 130,000. AID 1273, 2008;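 active = inhibition above the mean plus 3 SD, with well images judged a real hit on visual review, cut at about 60% in these data, passing the limit was not always enough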
GALR2 ag = GALR2 receptor agonists, primary screen, cell-based; AID 803, 2007; hit rate 0.48% among 140,000; Galanin receptor type 2 (Homo sapiens), O43603; activation, %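 (tested at 5 µM)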; GALR2-expressing cells, agonist activation read-out;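 active = above mean plus 3 SD of all compounds, about 5% in these data, not always enough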;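 note: 0% = vehicle buffer wells and 100% = reference agonist at full effect; tested in CHO reporter cells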
Target sequence (O43603 whole entry, looked up): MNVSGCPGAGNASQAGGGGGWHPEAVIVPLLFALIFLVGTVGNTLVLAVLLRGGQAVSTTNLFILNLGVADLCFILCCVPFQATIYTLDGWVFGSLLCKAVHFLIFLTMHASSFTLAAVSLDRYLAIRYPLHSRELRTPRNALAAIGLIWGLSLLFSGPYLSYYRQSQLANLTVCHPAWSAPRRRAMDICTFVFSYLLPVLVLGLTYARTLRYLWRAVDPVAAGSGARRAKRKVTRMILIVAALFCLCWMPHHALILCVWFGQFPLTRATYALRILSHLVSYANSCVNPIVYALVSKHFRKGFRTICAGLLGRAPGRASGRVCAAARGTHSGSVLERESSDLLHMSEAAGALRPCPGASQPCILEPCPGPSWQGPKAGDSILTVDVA
INS promoter inh cell count = recorded beside INS promoter inh, whose call it bears; normalized cell count, %; measured here: cell count, toxicity; reference of the scale not given here;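 cells exposed to compound for 48 h; stained nuclei by imaging scaled within each plate; lower means fewer cells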
HSV replic up primary fold = second read-out of HSV replic up, no call of its own (marks repeat the call); fold increase; compound at 10 µM; measured here: primary screen fold increase 10 uM; tested in PC3 cells;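 GFP signal in the first replicate; 1 = infected wells without compound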
* marks the source's active call; other numbers are inactive results; i = inactive; x = no result given.

Letter code: A = RGS16-Gao; B = PKD1 kinase inh; C = HSV replic up; D = HSV replic up primary fold; E = INS promoter inh; F = INS promoter inh cell count; G = GALR2 ag
O=C(c1ccc([N+](=O)[O-])s1)N1CCN(c2ccccc2)CC1
  A: 104; B: -5; C: i; D: 0.81; E: x; F: x; G: -1.0
CC(=O)Nc1nc2ccccc2n1Cc1ccc(C)cc1
  A: 94; B: 6; C: i; D: 0.91; E: x; F: x; G: x
COC(=O)c1ccc(C)c(-n2c(C)cc(C=O)c2C)c1
  A: 101; B: 14; C: i; D: 1; E: -77; F: 91; G: -0.9
Cc1cc(C)c(NC(=O)CN(C2CCCCC2)C2CCCCC2)c(C)c1
  A: 103; B: -5; C: i; D: 1; E: x; F: x; G: -2.5
Cc1[nH]n(-c2ccccc2)c(=O)c1C(c1ccccc1C(=O)O)c1c(C)[nH]n(-c2ccccc2)c1=O
  A: 101; B: 5; C: i; D: 0.99; E: -38; F: 110; G: -0.9
O=C(/C=C/c1ccc(Cl)cc1)NCc1ccncc1
  A: 108; B: -3; C: i; D: 0.97; E: -113; F: 43; G: -0.9
Cc1cccc(C)c1OCC(=O)Nc1ccccc1C(F)(F)F
  A: 101; B: 0; C: i; D: 1; E: x; F: x; G: x
Cc1ccc(NC(=O)CCn2cnc3ccccc3c2=O)cc1
  A: 107; B: 0; C: i; D: 1; E: x; F: x; G: x
CCOC(=O)c1[nH]c2ccc(OC)cc2c1NC(=O)CCN1CCSCC1
  A: 111; B: -10; C: i; D: 0.92; E: 29; F: 90; G: -2.3
CC(C)(C)n1nnnc1C(c1cccnc1)N(Cc1ccccc1)Cc1ccco1 (centres undefined)
  A: 95; B: 6; C: x; D: x; E: -7; F: 105; G: -0.2
CC(C)NC(=O)NC(=O)COC(=O)c1ccc(NC(=O)CC#N)cc1
  A: 101; B: -3; C: i; D: 0.99; E: 33; F: 105; G: -4.3
O=C(O)CCC(=O)Nc1cccc2cccnc12
  A: 104; B: 4; C: i; D: 0.98; E: x; F: x; G: x
CCOC(=O)c1cc(C)nc(Sc2ccc(C)cc2)c1C#N
  A: 100; B: x; C: i; D: 0.81; E: x; F: x; G: x
O=C(CCSCc1ccccc1F)N1CCN(c2ccccn2)CC1
  A: 100; B: 0; C: i; D: 0.92; E: -15; F: 87; G: -1.2
O=C(Nc1ccn(Cc2c(F)c(F)c(F)c(F)c2F)n1)c1ccc(COc2ccccc2Cl)cc1
  A: 103; B: -4; C: i; D: 0.98; E: 20; F: 99; G: -2.7
Cc1ccc(S(=O)(=O)N2CCC(C(=O)NCc3cccnc3)CC2)cc1
  A: 98; B: 0; C: i; D: 1.1; E: 43; F: 151; G: -1.2
CCC(C)NC(=O)C1CCN(C(=O)c2ccccc2)CC1 (centres undefined)
  A: 115; B: 13; C: x; D: x; E: -67; F: 171; G: -0.9
COc1ccc(CC(=O)Nc2c3c(nn2C(C)(C)C)CS(=O)C3)cc1 (centres undefined)
  A: 101; B: -5; C: i; D: 0.64; E: x; F: x; G: -1.6
COC(=O)c1ccccc1N/C=C/C(=O)c1ccc(Br)cc1
  A: 102; B: -2; C: i; D: 0.96; E: -16; F: 110; G: 0.6
O=C(NCc1ccc2c(c1)OCO2)c1ccc(NS(=O)(=O)c2ccc3c(c2)OCCO3)cc1
  A: 101; B: -13; C: i; D: 0.87; E: 28; F: 144; G: -1.0
Cc1noc(C(F)(F)F)c1C(=O)NNC(=O)c1cccc(C(F)(F)F)c1
  A: 102; B: x; C: i; D: 0.84; E: x; F: x; G: x
CC(C)(Oc1ccc(Cl)cc1)C(=O)OCC(=O)Nc1ncc(Cl)cc1Cl
  A: 100; B: 6; C: i; D: 0.93; E: 32; F: 56; G: -0.2
CCC(C)C(NC(=O)C1CCC(C)CC1)C(=O)Nc1ccc(OC)cc1OC (centres undefined)
  A: 104; B: -3; C: i; D: 0.91; E: x; F: x; G: x
C/C(CCc1ccc2c(c1)OCO2)=N\NC(=S)NC(C)C
  A: 68; B: 2; C: i; D: 0.99; E: -79; F: 88; G: x
CSc1ccc(/C=N/NC(=O)c2cccs2)cc1
  A: 101; B: x; C: i; D: 0.79; E: x; F: x; G: x
COc1ccccc1NC(=O)N(c1c(N)n(Cc2ccccc2)c(=O)[nH]c1=O)C1CCCC1
  A: 105; B: 14; C: i; D: 1; E: x; F: x; G: -1.7
Cn1c(=O)c2cc(S(=O)(=O)N3CCN(c4cccc(C(F)(F)F)c4)CC3)ccc2n(C)c1=O
  A: 102; B: -1; C: x; D: x; E: 3; F: 89; G: -1.3
CCOC(=O)c1ccc2c(c1)N(CC#N)C(=O)C(C)(C)O2
  A: 98; B: -8; C: i; D: 0.96; E: x; F: x; G: x
O=C(CSc1nnc(COc2ccc(Br)cc2)o1)N1CCOCC1
  A: 106; B: -5; C: i; D: 0.98; E: x; F: x; G: x
COc1ccc(NC(=S)N(CCN(C)C)C(C)c2ccncc2)cc1Cl (centres undefined)
  A: 95; B: x; C: i; D: 1; E: x; F: x; G: x
CCOC(=O)c1ccccc1NC(=O)c1ccccc1SC
  A: 94; B: -6; C: i; D: 0.97; E: -58; F: 86; G: 1.9
O=C(/C=C/c1ccc(OCc2c(F)cccc2Cl)cc1)N1CCOCC1
  A: 105; B: 19; C: i; D: 0.62; E: 12; F: 97; G: x
COc1ncnc(OC)c1NC(=O)c1ccc(F)cc1
  A: 89; B: -8; C: i; D: 1.2; E: x; F: x; G: -2.1
C=CCN1C(=O)C(Cc2ccc(OCC)cc2)S/C1=N\N=C\c1cccs1 (centres undefined)
  A: 29; B: -14; C: i; D: 0.98; E: 39; F: 63; G: -0.9
Cc1cc(C)c(C)c(S(=O)(=O)Nc2ccccc2C(=O)O)c1C
  A: 100; B: -1; C: i; D: 0.83; E: x; F: x; G: x
O=C(Nc1ccc(N2CCN(c3ccccc3)CC2)c(F)c1)C1CC1
  A: 104; B: -7; C: i; D: 0.9; E: x; F: x; G: x
O=C(c1ccoc1)N1CCC2(CC1)Oc1ccc(Cl)cc1C(=O)C21CC(c2ccc(Cl)cc2)=NO1 (centres undefined)
  A: 90; B: x; C: i; D: 0.72; E: x; F: x; G: x
CC1CCCN(C(=O)COC(=O)c2n[nH]c3ccccc23)C1 (centres undefined)
  A: 92; B: -5; C: i; D: 0.97; E: x; F: x; G: -0.7
CC1CCCN(c2nc3ccsc3c(=O)s2)C1 (centres undefined)
  A: 104; B: -10; C: i; D: 0.71; E: x; F: x; G: 0.0
OCCC1CN(Cc2cccn2-c2ccccn2)CCN1Cc1ccccc1 (centres undefined)
  A: 100; B: 0; C: i; D: 0.93; E: x; F: x; G: x
COc1cc(OC)cc(C(=O)Nc2ccc(S(=O)(=O)N(C)C)cc2)c1
  A: 111; B: -1; C: i; D: 0.82; E: -23; F: 103; G: -1.2
CCOC(=O)c1c(C)n(C)c2cc(-c3ccc(F)cc3)c(O)cc12
  A: 99; B: -1; C: i; D: 0.88; E: x; F: x; G: 1.3
CC1CN(S(=O)(=O)c2ccc(C(=O)NCCCn3ccnc3)cc2)CC(C)O1 (centres undefined)
  A: 93; B: 3; C: i; D: 0.83; E: -70; F: 59; G: x
FCCCOc1ccc(CN2CCN(c3ccccc3F)CC2)cc1
  A: 100; B: 7; C: i; D: 0.99; E: 3; F: 75; G: x
Cc1ccc2oc(=O)n(CCCOc3ccccc3C)c2c1
  A: 95; B: 4; C: i; D: 1; E: x; F: x; G: x
Cc1cc(C(F)F)n2ncc(C(=O)N3CCCCC3)c2n1
  A: 103; B: -5; C: i; D: 0.89; E: -247; F: 104; G: -1.6
Clc1cccc(CON/C=N/c2ncnc3sccc23)c1
  A: 104; B: -8; C: i; D: 0.91; E: 0; F: 69; G: -1.6
Cc1csc(NC(=O)c2nc3nccc(C)n3n2)n1
  A: 64; B: -12; C: i; D: 0.84; E: 9; F: 132; G: -0.2
Cc1c(NC(=O)C(C)OC(=O)c2cc(Cl)nc(Cl)c2)c(=O)n(-c2ccccc2)n1C (centres undefined)
  A: 181; B: 3; C: i; D: 1; E: -14; F: 93; G: -1.5
COc1cccc(CN2CCNC(=O)C2CC(=O)NCc2cc(C(C)C)no2)c1 (centres undefined)
  A: 88; B: 0; C: i; D: 0.9; E: 43; F: 83; G: x

(continued)
Letter code: A = RGS16-Gao; B = PKD1 kinase inh; C = HSV replic up; D = HSV replic up primary fold; E = INS promoter inh; F = INS promoter inh cell count; G = GALR2 ag
CCOC(=O)C1CCN(C(=S)Nc2cc(OC)c(OC)cc2C(=O)OC)CC1
  A: 100; B: -13; C: i; D: 1.3; E: 64; F: 77; G: -0.6
Cc1cc(-n2nc(C)cc2C)n2nc(C)c(-c3ccccc3)c2n1
  A: 103; B: -4; C: i; D: 0.79; E: 27; F: 60; G: -1.9
COc1ccc(NC(=O)C(c2cc3c(cc2[N+](=O)[O-])OCO3)N(C)Cc2ccccc2)cc1 (centres undefined)
  A: 58; B: -8; C: i; D: 1.1; E: -30; F: 86; G: 1.1
CSc1ccc(/C=C/c2ccc3cccc(O)c3n2)cc1
  A: 88; B: 1; C: i; D: 0.99; E: x; F: x; G: x
Nc1n[nH]c2c1C1(CCCC1)Cc1ccccc1-2
  A: 81; B: -10; C: i; D: 0.94; E: 15; F: 97; G: 0.1
COc1ccc(OCCC(=O)NC2=NCCS2)cc1
  A: 95; B: -10; C: i; D: 1; E: -367; F: 48; G: -2.3
Oc1ccc(/C=N/Nc2ccc(C(F)(F)F)cn2)cc1
  A: 100; B: 4; C: i; D: 0.97; E: x; F: x; G: x
CN1CCN(c2nc(N3CCN(CCO)CC3)nc3ccccc23)CC1
  A: 101; B: -6; C: i; D: 0.66; E: 6; F: 121; G: -2.2
COc1ccc(-n2c(Cn3c(=O)sc4ccccc43)nnc2SCC(=O)N2CCOCC2)cc1
  A: 64; B: -11; C: i; D: 0.96; E: x; F: x; G: -2.6
CCCc1noc2c1/C(=N\O)CCC2
  A: 98; B: 1; C: i; D: 1.1; E: 54; F: 101; G: -1.8
Cc1ccc(S(=O)(=O)N2CCC(C(=O)NNC(=O)C3CC3)CC2)cc1Cl
  A: 98; B: -8; C: i; D: 0.79; E: x; F: x; G: x
CC1CCN(c2c([N+](=O)[O-])c(=O)n(-c3ccccc3)c3ccccc23)CC1
  A: 98; B: 1; C: i; D: 1.1; E: x; F: x; G: -1.4
Cc1cccc(-n2cc(C(=O)O)c(=O)cc2C)c1
  A: 103; B: -4; C: x; D: x; E: 15; F: 127; G: x
O=C(CCC(=O)OCC(=O)c1ccc([N+](=O)[O-])cc1)NC1CCCCC1
  A: 89; B: -6; C: i; D: 1; E: 8; F: 84; G: -1.0
Cn1c(CCC(=O)OCC(=O)NCC(F)(F)F)nc(=O)c2ccccc21
  A: 101; B: 2; C: i; D: 1; E: x; F: x; G: x
COc1cccc(NC(=O)Nc2ccc(C(C)(C)C)cc2)c1
  A: 42; B: -4; C: i; D: 0.84; E: x; F: x; G: x
N#C/C(=C/c1ccc(F)cc1)c1nc(CCN2C(=O)c3ccccc3C2=O)cs1
  A: 100; B: -2; C: i; D: 0.71; E: 3; F: 69; G: -2.9
Cc1ccc(-c2nnc(C)c(N3CC(C)OC(C)C3)n2)cc1 (centres undefined)
  A: 102; B: -1; C: i; D: 0.91; E: 16; F: 94; G: -2.0
CCC(C)n1c(SCC(=O)Nc2cc(C)on2)nc2ccccc2c1=O (centres undefined)
  A: 109; B: -6; C: i; D: 0.79; E: 56; F: 83; G: -0.2
COC(=O)c1sccc1S(=O)(=O)Nc1ccc(N2CCCCC2)cc1
  A: 100; B: x; C: i; D: 0.84; E: x; F: x; G: x
Clc1ccc(-c2csc(N3CCN(c4ccccc4)CC3)n2)cc1
  A: 106; B: -5; C: i; D: 0.92; E: 41; F: 161; G: -1.2
CC1CC(C)(C)NC(=S)N1CCCC(=O)Nc1ccc(Cl)cc1 (centres undefined)
  A: 96; B: 5; C: i; D: 0.89; E: -33; F: 97; G: x

Pulled one by one from the list above:
Letter code: A = RGS16-Gao; B = PKD1 kinase inh; C = HSV replic up; D = HSV replic up primary fold; E = INS promoter inh; F = INS promoter inh cell count; G = GALR2 ag
Cc1ccc(S(=O)(=O)N2CCC(C(=O)NNC(=O)C3CC3)CC2)cc1Cl
  A: 98; B: -8; C: i; D: 0.79; E: x; F: x; G: x
Cn1c(CCC(=O)OCC(=O)NCC(F)(F)F)nc(=O)c2ccccc21
  A: 101; B: 2; C: i; D: 1; E: x; F: x; G: x
CC1CC(C)(C)NC(=S)N1CCCC(=O)Nc1ccc(Cl)cc1 (centres undefined)
  A: 96; B: 5; C: i; D: 0.89; E: -33; F: 97; G: x
COC(=O)c1sccc1S(=O)(=O)Nc1ccc(N2CCCCC2)cc1
  A: 100; B: x; C: i; D: 0.84; E: x; F: x; G: x
